Assay outcomes: PubChem, National Center for Advancing Translational Sciences (NCATS)
VACV Venus inh = inhibitors of vaccinia virus (Venus reporter); Vaccinia virus Venus reporter expression, fluorescence; Potency, µM (top dose mostly 36.5 µM), inactives show at the highest dose activity change, negative = inhibition, actives largely listed as inhibitors; actives 0.46% (n = 330,000); AID 720580; active means well fitted inhibition curve with a large enough effect; inconclusive means small, poorly fitted or top-dose-only effect; inactive means no such curve, though single readings can be large or run the other way; tested in A549 cells; note: nearly all actives have a fitted effect of over 30% in size; inactives centre near -10
VACV mCherry inh = inhibitors of vaccinia virus infection (mCherry reporter signal) | Vaccinia virus mCherry reporter infection, fluorescence; about a quarter of the inactives have no number | AID 720579 | Potency, µM (top dose mostly 36.5 µM), for the others: top-dose activity change, negative = inhibition, hits mostly inhibitors | actives 0.63% (n = 310,000); active = well fitted inhibition curve with a large enough effect; inconclusive = small, poorly fitted or top-dose-only effect; inactive = no such curve, though single readings can be large or run the other way; tested in A549 cells; note: nearly all actives have a fitted effect of over 35% in size; inactives centre near -10
* hit, by the source's call; i = inactive; ? = inconclusive; nt = no result given; & = joins results of further samples; [ ] = remark or other dose. % is set by controls: 0 for no effect and ±100 for the full control effect; potency is the fitted concentration of half-maximal effect.

SMILES	VACV Venus inh	VACV mCherry inh
Cc1ccc(CNC(=O)CCN2C(=O)COc3ccc(C)cc32)cc1	-2%	3%
O=C(O)c1cc(S(=O)(=O)Nc2ccc(N3CCCCC3)cc2)ccc1Cl	-2%	-8%
CCN(CC(=O)Nc1ccc(NC(C)=O)cc1)C(=O)c1cc(-c2ccccc2)nn1-c1ccccc1	-20%	-1%
Cc1ccc2c(c1)c(=O)c1ccccc1n2CCCC(=O)Nc1ccc(Cl)c(Cl)c1	-27%	-25%
Cc1ccc(NC(=O)CSc2n[nH]c(C)c2[N+](=O)[O-])cc1C	-8%	-7%
COCc1nc2oc3ccc(F)cc3c(=O)c2cc1C(=O)OC	-10%	i
CC(C)CC(N)c1csc(Nc2ccc(C(=O)NCCO)cc2)n1 (configuration not stated)	-1%	-8%
Cc1cc(C)cc(Nc2nc3ccccc3c(=O)[nH]2)c1	-20%	-10%
COc1ccc(/C=C/C(=O)NC(=S)NCC2CCCO2)cc1 (configuration not stated)	-9%	-6%
COc1ccc(OC)c(NC(=O)c2ccc(CSc3nnc(C)s3)cc2)c1	-20%	-14%
COC(=O)c1[nH]c2c(c1C)C(=O)CC(c1cccs1)C2 (configuration not stated)	?	?
CCCS(=O)(=O)N1CCC(C(=O)NCc2ccccc2Cl)CC1	?	nt
C/C(=N\NC(=O)CSCc1ccc(Cl)cc1)c1ccc(NC(=O)c2ccccc2)cc1	-8%	nt
CC(C)NC(=O)C1CCC(Cn2c(=O)c3sccc3n(CC(=O)N3CCCC3)c2=O)CC1 (configuration not stated)	-4%	1%
COc1cccc(C(=O)O)c1OS(=O)(=O)c1ccc(C)cc1	-5%	i
O=C(NCc1ccccn1)C1CCN(S(=O)(=O)N2CCC3(CC2)OCCO3)CC1	-4%	-7%
COc1ccc2sc(-c3ccccc3OC)c(-c3ccc(OCCN(C)C)cc3)c2c1	-17%	-20%
Cc1cccc(Nc2ncnc3onc(-c4cccc(Cl)c4)c23)c1C	-12%	-3%
CCCCN(CCCC)c1ccc(/C=C/c2ccnc3ccccc23)cc1	32%[activator]	i
CC1CCCN(C(=O)Cn2c3ccccc3c3nc4n(c(=O)c32)CCS4)C1 (configuration not stated)	0%	-1%
O=C(Nc1ccccc1)c1cc([N+](=O)[O-])ccc1N1CCCCC1	2%	-10%
O=C(c1cccc(Br)c1)N1CCN(C(=O)N2CCCCC2)CC1	-5%	-1%
Cc1ccc(C)c(NC(=O)CN(C)S(=O)(=O)c2cccc3nsnc23)c1	-11%	-11%
O=C(NCCS(=O)(=O)N1CCCCCC1)c1ccc(F)cc1	-7%	i
CCC1Sc2ccc(S(=O)(=O)CCC(=O)N3CCc4ccccc43)cc2NC1=O (configuration not stated)	-18%	-2%

Reprinted from the part before: 2 compounds, then new ones.
SMILES	VACV Venus inh	VACV mCherry inh
O=C(NCCS(=O)(=O)N1CCCCCC1)c1ccc(F)cc1	-7%	i
CCC1Sc2ccc(S(=O)(=O)CCC(=O)N3CCc4ccccc43)cc2NC1=O (configuration not stated)	-18%	-2%
O=C(NCC1CCCO1)C(=O)N/N=C/c1ccc(OCc2ccccc2Cl)cc1 (configuration not stated)	-6%	i
Cc1ccc(Sc2c(C(=O)NCc3cccc(F)c3)[nH]c3ccccc23)cc1	-8%	i
CC(C)OC(=O)CC1C(=O)NCCN1C(=S)NC(=O)c1ccccc1 (configuration not stated)	-3%	-28%
N#Cc1c(C(F)(F)F)cc(-c2ccccc2)nc1SCCN1CCOCC1	-14%	-19%
O=C1CSC(c2ccc([N+](=O)[O-])cc2)N1c1ccccc1 (configuration not stated)	-4%	-12%
CN(C)c1ccc(C2OC(=O)C(C)(C)C(=O)C2(C)C)cc1 (configuration not stated)	-23%	nt
CCCCN(C(=O)CSCC(=O)Nc1cccc(C)c1)c1c(N)n(CCCC)c(=O)[nH]c1=O	-15%	-13%
CCC(C)(C)n1nnnc1C(c1cccc(C#N)c1)N1CCN(c2cc(C)ccc2C)CC1 (configuration not stated)	-4%	-9%
COCCNC(=S)N/N=C(\C)c1ccc(OC)cc1	-12%	-10%
O=C(NCC1CCN(C(=O)c2ccc([N+](=O)[O-])cc2)CC1)C(=O)Nc1ccccc1	7%	-8%
C=CC[n+]1c(-c2ccc(C)cc2)csc1NNC(=O)Nc1ccccc1	-27%	-12%
CN1CCN(C(=O)c2cc3c(c(-c4cccc(C#CC(C)(C)O)c4)n2)[C@H](CCO)N(S(=O)C(C)(C)C)C3)CC1 (some centres not stated)	-4%	i
COc1ccc(C2C(C(=O)c3ccco3)=C(O)C(=O)N2c2nnc(C)s2)cc1 (configuration not stated)	-9%	i
CN(C)S(=O)(=O)c1ccc(C(=O)NC2CC(=O)N(c3ccc4c(c3)OCCO4)C2)cc1 (configuration not stated)	-6%	-9%
COc1ccc(/C=N/Nc2cc(=O)n(C)c(=O)n2C)cc1OC	-11%	-14%
COc1ccc(N(C(=O)CCl)C(C(=O)NCCc2ccccc2)c2cccs2)cc1 (configuration not stated)	?	-21%
COc1ccc(N(C(=O)Cn2nnc3ccccc32)C(C(=O)NCc2ccco2)c2cccnc2)cc1 (configuration not stated)	-6%	nt
CC1CC2C3CCC4=CC(=O)C=C[C@@]4(C)[C@]3(F)C(O)C[C@]2(C)[C@]1(O)C(=O)CO (some centres not stated)	-17%&-25%	i
CCn1c2ccccc2c2nnc(SCC(=O)OCN3C(=O)c4ccccc4C3=O)nc21	-12%	nt
CN(C)S(=O)(=O)Nc1ccccn1	-1%	i
CCOc1cnn(Cc2ccccc2)c(=O)c1SCc1ccccc1	-10%	-3%
CC(=O)c1cccc(NC(=O)Nc2ccc3c(c2)CCC3)c1	-16%	-8%
COc1ccc(C2=NCC(=O)N(CC(=O)NCc3ccco3)c3sc4c(c32)CCCC4)cc1	-5%	-7%
O=C(Nc1ccc(N2CCCC2)c(Cl)c1)c1ccco1	-19%	-2%
CCCC(=O)Nc1nc2c(s1)COc1ccccc1-2	-26%	-26%

Structures from the list above that have an aryl methoxy group:
SMILES	VACV Venus inh	VACV mCherry inh
COc1ccc(/C=C/C(=O)NC(=S)NCC2CCCO2)cc1 (configuration not stated)	-9%	-6%
COc1ccc(OC)c(NC(=O)c2ccc(CSc3nnc(C)s3)cc2)c1	-20%	-14%
COc1cccc(C(=O)O)c1OS(=O)(=O)c1ccc(C)cc1	-5%	i
COc1ccc2sc(-c3ccccc3OC)c(-c3ccc(OCCN(C)C)cc3)c2c1	-17%	-20%
COCCNC(=S)N/N=C(\C)c1ccc(OC)cc1	-12%	-10%
COc1ccc(C2C(C(=O)c3ccco3)=C(O)C(=O)N2c2nnc(C)s2)cc1 (configuration not stated)	-9%	i
COc1ccc(/C=N/Nc2cc(=O)n(C)c(=O)n2C)cc1OC	-11%	-14%
COc1ccc(N(C(=O)CCl)C(C(=O)NCCc2ccccc2)c2cccs2)cc1 (configuration not stated)	?	-21%
COc1ccc(N(C(=O)Cn2nnc3ccccc32)C(C(=O)NCc2ccco2)c2cccnc2)cc1 (configuration not stated)	-6%	nt
COc1ccc(C2=NCC(=O)N(CC(=O)NCc3ccco3)c3sc4c(c32)CCCC4)cc1	-5%	-7%

Further entries follow:
SMILES	VACV Venus inh	VACV mCherry inh
Cc1cnc(/C=C/c2ccc(N(C)C)cc2)cn1	-30%	?
Cc1nn(Cc2ccccc2)c(Cl)c1C(=O)OC(C)C(=O)Nc1ccc(F)cc1Cl (configuration not stated)	-7%	i
Cc1c2cnn(CC(=O)N3CCN(c4ccccc4)CC3)c(=O)c2c(C)n1Cc1ccc(F)cc1	-18%	-11%
CCCS(=O)(=O)N1CCN(CC2CC3C=CC2C3)CC1 (configuration not stated)	-7%	-10%
O=C(CCCn1cnc([N+](=O)[O-])n1)Nc1cccc(O)c1	-8%	-11%
CSc1ncccc1C(=O)OCC(=O)c1cc2ccccc2o1	-14%	-15%
O=C(N/N=C/c1c[nH]c2ccccc12)c1ccc(Br)cc1	-22%	-21%
Cc1cc(NC(=O)COC(=O)c2c(C)noc2C)ccc1Br	-6%	i
COc1ccc2nc(SCC(=O)NC(C)(C)C)[nH]c2c1	-3%	3%
N[C@H](C(=O)O)c1cc(O)cc(O)c1	-4%	-6%
Cc1ccc2nc(-c3ccccc3N)[nH]c2c1	-9%	-11%
CCCNC(=O)C1(C)CCCN(Cc2c(F)cccc2F)C1 (configuration not stated)	-1%	12%
CCn1c(=O)c(C)nn2c3ccccc3nc12	?	nt
CCN(C(=O)COC(=O)c1c(C)nn(-c2ccccc2)c1Cl)c1c(N)n(Cc2ccccc2)c(=O)[nH]c1=O	-10%	-13%
COc1ccccc1NC(=O)c1nn(C)c(C(=O)Nc2ccccc2OC)c1[N+](=O)[O-]	-10%	-15%
O=C(NCCCc1ccccc1)c1ccc(-n2cncn2)c([N+](=O)[O-])c1	-15%	0%
CC(=O)NC(CC(=O)Nc1ccc2c(c1)OCCO2)c1ccccc1 (configuration not stated)	-1%	-15%
CC1N(C)c2cc(NC(=O)c3ccco3)c(P(=O)(Nc3ccc([N+](=O)[O-])cc3)N3CCOCC3)cc2C1(C)C (configuration not stated)	10%	-14%
Cc1nn(-c2ccccc2)c2sc(C(=O)NCCN3CCOCC3)cc12	-19%	-24%
O=C(CN1c2cccc3cccc(c23)S1(=O)=O)N1CCN(c2ccccc2)CC1	-24%	-5%
CN(CCO)C(=O)c1nc[nH]c1C(=O)N(C)Cc1ccccc1	-3%	-7%
CC1(C)CC(=O)C=C(c2ccc(-c3ccccc3)cc2)C1=O	?	-14%
CCC(=O)N1CCCC1(C)C(=O)NCc1ccc(SC)cc1 (configuration not stated)	-8%	26%
Cc1ccc(NC(=O)c2sc(Cl)nc2-c2ccccc2)cc1C	-4%	nt
COc1cccc(C(=O)NCCS(=O)(=O)NC2CCCC2)c1	-21%	i
SMILES	VACV Venus inh	VACV mCherry inh
Cc1ccc2nc(NC(=O)CN(C)S(=O)(=O)c3ccc(Br)s3)sc2c1	?	nt
O=S(CC1CC1(Cl)Cl)CC1CC1(Cl)Cl (configuration not stated)	4%	-12%
CC(=O)c1ccc(NC(=O)Nc2ccc([N+](=O)[O-])cc2)cc1	1%	-14%
O=C(NCCc1ccc(Cl)cc1)c1ccc2c(c1)N(Cc1ccc(F)cc1)C(=O)CS2	-18%	-24%
C=CCOc1ccc(/C=N/NC(=O)c2c(C)nc3ccc(Cl)cn23)cc1	-10%	-4%
COc1ccc2cnn(Cc3ccccc3)c(=O)c2c1OC	-11%	nt
Cc1ccn2c(CNC(C)c3cn(C)nc3C)c(C(=O)N3CCCCCC3)nc2c1 (configuration not stated)	-12%	i
CC(C)OCCCn1c(SCC(=O)Nc2ccc(F)cc2)nc2c(sc3ccccc32)c1=O	5%	-3%
COC(=O)c1ccc(NC(=O)CN(C)S(=O)(=O)c2ccc(OC)c(C)c2)cc1	-11%	-7%
O=[N+]([O-])c1ccc2nnn(O)c2c1	-9%	0%
CCn1c(=NC(=O)CN2C(=O)CCC2=O)sc2c(OC)ccc(OC)c21	-19%	-25%
Cc1cc(C)n(-c2nc3ccccc3nc2N2CCN(C(=O)c3ccccc3)CC2)n1	-7%	nt
COc1ccc(C(=O)Nc2ccncc2)cc1OC	-7%	i
O=C(COc1ccc(-c2nnco2)cc1)Nc1c(F)cccc1F	-9%	-4%
O=C(CN1CCN(Cc2ccccc2)CC1)NCc1ccc(Cl)cc1	-9%	-12%
Cc1ccnc(N/N=C/c2ccccc2)n1	-13%	-7%
CNS(=O)(=O)c1cccc(C(=O)OC2CCCCC2=O)c1 (configuration not stated)	-19%	nt
Cn1c(NCCN)nc2c1c(=O)n(Cc1ccccc1)c(=O)n2C	-11%	-16%
COc1ccc(C(=O)COC(=O)C(CCSC)NS(=O)(=O)c2ccc(Cl)cc2)cc1 (configuration not stated)	-13%	0%
CN(C)c1ccc(C=Cc2ccnc3ccccc23)cc1N	-15%	-16%
O=C(Nc1ccccc1N1CCOCC1)c1cccc(F)c1	1%	-15%
COc1ccc(Br)cc1CNC(=O)c1ccc(-n2c(C)cc3c2CCC(C)C3)cc1 (configuration not stated)	-16%	-6%
CC(=O)Oc1ccc(/C=N/NC(=O)CCSc2ccccc2)cc1	-16%	-16%
CCN1C(=O)/C(=C/c2cccs2)N(C)C1=S	-8%	-13%
COc1ccccc1-c1nnc(NC(=O)C2CCCN2S(=O)(=O)c2cccs2)o1 (configuration not stated)	-17%	-3%
O=C(CC[C@H]1O[C@@H](n2ccc(=O)[nH]c2=O)[C@H](O)[C@@H]1O)NCc1ccc2c(c1)OCO2	-9%	33%[activator]
CSCCC(NC(=O)c1ccc(Cl)cc1Cl)C(=O)OC(C)C(=O)NCc1ccco1 (configuration not stated)	-6%	i
Cc1ccc([N+](=O)[O-])c2c1C(N1CC(C)OC(C)C1)C(C)(C)O2 (configuration not stated)	-13%	-7%

A different layout for some results above.
COc1ccc(C(=O)COC(=O)C(CCSC)NS(=O)(=O)c2ccc(Cl)cc2)cc1 (configuration not stated)
  VACV Venus inh: -13%
  VACV mCherry inh: 0%
CN(C)c1ccc(C=Cc2ccnc3ccccc23)cc1N
  VACV Venus inh: -15%
  VACV mCherry inh: -16%
O=C(Nc1ccccc1N1CCOCC1)c1cccc(F)c1
  VACV Venus inh: 1%
  VACV mCherry inh: -15%
